# Screening data (PubChem)
# TRPML1 ag = activates the human TRPML1 channel; activation, % (concentration not given with the values); AID 624414; 410,000 compounds, 0.12% hits; TRPML1-expressing cells, Ca2+ dye fluorescence, FDSS; host cell line not named in the record; reference of the full effect not given here; in the data active = activation above about 50%; inconclusive = about 30% to 50%; inactive = below about 30%; also: 0% is about no effect; the text of the record puts the active cut at 80%
#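 Tetracycline-induced TRPML1-DL cells are seeded and incubated overnight before loading with a no-wash Ca2+ dye and quencher. Agonist activity is taken from the 110 s fluorescence read following compound pin-transfer on an FDSS, before EC80 54-4 challenge.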
# CtBP-E1A blk = inhibitors of CtBP/E1A interaction. activity change, % (test concentration not listed). AID 651724. 340,000 compounds, 0.49% hits. AlphaScreen GST-E1A/His-CtBP binding, 1536-well; stronger effect = lower value; control for the full effect not named in the record; in the data active means activity change below about -65%; inconclusive means about -30% to -65%; inactive means above about -30%; also: % is scaled to controls: 0 for no effect and ±100 for the full control effect
#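 Steps: dispense buffer (Tris pH 8.0, NaCl 300 mM, TCEP 1 mM, BSA, Tween 20); add 5X protein mix (GST-E1A, His-CtBP, 125 nM each); pin 23 nL compound; 2 h at 37 °C, dark; add 5X beads (50 ug/mL); 1 h; read.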
# D2 ag = agonists of human D2 dopamine receptor (beta-arrestin); P14416; 360,000 compounds, 0.084% hits; activation, % (test concentration not listed); AID 624465; DiscoveRx PathHunter D2 beta-arrestin, luminescence, 90 min; 100% = 57 uM dopamine signal; in the data active = activation above about 40%; inconclusive = about 15% to 40%; inactive = below about 15%; also: compound concentration not given in the record; the text of the record calls up to 30% inactive
#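 Agonist mode: compounds alone added to overnight-plated D2 PathHunter cells for 90 min at 37 C, with 57 uM final dopamine (EC100) defining full response. Beta-arrestin recruitment detected by chemiluminescent reagent, read after 1 h at ambient temperature.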
# PINK1 modulator = changes PINK1 expression; PINK1 immunofluorescence, high-content cytometry, 24 h; 410,000 compounds, 0.2% hits; Potency, µM (titrated, usually from 76.6 µM), for the others: at the top dose activation (PINK1 increase), most hits filed as activators; active = well fitted activation curve with a large enough effect; inconclusive = small, poorly fitted or top-dose-only effect; inactive = flat fitted curve, though single readings scatter; cell line not stated here;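 also: potency is read from the fitted curve at half-maximal effect; % of control where 0% means no effect; nearly all actives have a fitted effect of over 65% in size; a mitochondrial uncoupler was the plate control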
#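 Stable cell line, 250 cells/well, 12 h attachment; compounds pinned at 5 concentrations, 24 h; CCCP control. Fixed with nuclear dye, primary antibodies 12 h at 10 degrees C, secondary plus cell stain; laser-scanning cytometer read.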
# Six1-Eya2 inh = Six1/Eya2 interaction inhibition; Q15475+O00167; 360,000 compounds, 0.56% hits; AlphaScreen GST-Six1/His-Eya2 binding, biochemical; stronger effect = lower value; control for the full effect not named in the record; activity change, % (test concentration not listed); in the data active = activity change below about -65%; inconclusive = about -30% to -65%; inactive = above about -30%; also: % is scaled to controls: 0 for no effect and ±100 for the full control effect
# Target sequence (O00167 whole entry, looked up): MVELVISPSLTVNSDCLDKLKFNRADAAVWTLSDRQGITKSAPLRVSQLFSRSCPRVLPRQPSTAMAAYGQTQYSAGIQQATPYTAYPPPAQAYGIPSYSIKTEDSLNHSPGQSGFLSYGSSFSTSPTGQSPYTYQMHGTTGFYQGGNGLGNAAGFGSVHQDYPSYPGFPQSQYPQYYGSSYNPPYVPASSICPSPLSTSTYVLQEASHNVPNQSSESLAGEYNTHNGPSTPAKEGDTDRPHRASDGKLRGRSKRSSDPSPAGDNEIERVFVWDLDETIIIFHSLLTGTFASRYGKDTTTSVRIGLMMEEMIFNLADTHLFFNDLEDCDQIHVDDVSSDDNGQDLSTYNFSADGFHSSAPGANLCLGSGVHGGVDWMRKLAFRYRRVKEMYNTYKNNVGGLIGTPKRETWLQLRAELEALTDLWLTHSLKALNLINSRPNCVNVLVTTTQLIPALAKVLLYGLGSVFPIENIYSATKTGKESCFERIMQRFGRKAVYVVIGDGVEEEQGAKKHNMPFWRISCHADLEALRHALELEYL
# Target sequence (Q15475 whole entry, looked up): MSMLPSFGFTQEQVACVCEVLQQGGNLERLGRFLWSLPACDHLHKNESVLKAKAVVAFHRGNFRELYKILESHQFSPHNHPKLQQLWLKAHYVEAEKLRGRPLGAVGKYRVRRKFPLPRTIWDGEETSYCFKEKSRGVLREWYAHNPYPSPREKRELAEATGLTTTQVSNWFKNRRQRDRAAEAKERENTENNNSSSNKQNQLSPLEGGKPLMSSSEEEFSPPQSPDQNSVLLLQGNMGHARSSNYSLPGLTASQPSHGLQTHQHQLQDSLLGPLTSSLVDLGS
#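 Compounds are tested against tagged Six1 and Eya2 proteins bridged by glutathione donor and nickel acceptor beads; after a one-hour incubation at 37 °C without light, AlphaScreen emission is recorded.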
# TRPML1 blocker = blocks the human TRPML1 channel | Q9GZU1 | TRPML1-inducible cells, Ca2+ dye fluorescence, FDSS; stronger effect = lower value; inhibition of EC80 agonist-evoked calcium signal | activity change, negative = inhibition, % (no concentration beside the values) | 390,000 compounds, 0.02% hits | AID 624415; in the data active means activity change below about -50%; inconclusive means about -30% to -50%; inactive means above about -30%;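 also: stimulus is agonist 54-4 at its EC80 concentration; % is scaled to controls: 0 for no effect and ±100 for the full control effect; compound concentration not given in the record; the text of the record puts the active cut at -80%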
#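 TRPML1-DL cells, Tet-induced overnight (~16 h, 37 °C) at 1,500 cells/well, were loaded with Ca8 no-wash dye plus quencher for 45-90 min at room temperature. Compounds were pinned during FDSS kinetic reading; agonist 54-4 at EC80 (4 uM final) then added.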
# The depositor's hits bear a star; / = not tested or not shown; & = joins results of further samples; [ ] = another dose, or the depositor's remark.
Compound	TRPML1 ag	CtBP-E1A blk	D2 ag	PINK1 modulator	Six1-Eya2 inh	TRPML1 blocker
Cc1ccc(S(=O)(=O)N2CCC3(CC2)OCCN3S(=O)(=O)c2cccs2)cc1	-0.4	2	-0.6	0.4%	-10	23
CC1CCN(c2nc3c(c(=O)n(C)c(=O)n3C)n2CCSc2nc3ccccc3s2)CC1	1.1	3	-2.8	-0.1%	-2	23
CC(=O)c1cc2c(cc1NC(=O)C1CC=CCC1C(=O)O)OCO2 (configuration not stated)	0.3	4	-3.3	2.3%	2	15
COC(=O)c1ccc(C)c(NC(=O)CCSc2ccccc2)c1	-1.0	4	-4.5	5.1%	-1	4
CCc1ccc(NC(=O)CSc2nc(C)c(C(=O)Nc3ccc(Cl)cc3)c(-c3ccc(OC)cc3)c2C#N)cc1	-0.1	/	/	1.9%	/	-9
Cc1ccc(C)c(C(=O)CN2Cc3ccccc3C2=O)c1	-0.3	-16	-4.7	-1.3%	-7	-10
Cc1nc2ccc(S(=O)(=O)NCC(=O)NCc3ccc(Cl)cc3)cc2s1	0.3&0.4	-9	-0.3	0.9%&-1.1%	0	-3&-9
COc1ccc([N+](=O)[O-])cc1C(=O)NC1CCN(Cc2ccccc2)CC1	2.9	2	-2.3	-0.4%	1	-24
Cc1cc(C)cc(NC(=O)Nc2ccc(N3CCCCC3)cc2)c1	-0.3	-25	1.0	12%	-23	-4
O=C(Nc1cc(Cl)cc(Cl)c1)C(NCCO)c1ccccc1 (configuration not stated)	0.8	4	-2.0	1.3%[38.3 µM]	5	5
Oc1ccc(-c2csc(Nc3ncccn3)n2)cc1	1.5	16	2.6	1.3%	-2	-15
CCOc1ccc(S(=O)(=O)NC2CCCC2)cc1	1.1	11	2.5	-1.3%	11	3
COc1ccc(CCN2CC(C(=O)NCC(c3ccccc3)N(C)C)CC2=O)cc1OC (configuration not stated)	0.5	-7	4.0	1.2%	-17	-16
Cc1ccc(-n2c3c(cc(C(=O)NC4CCSC4=O)c2=O)C(=O)CC(C)(C)C3)cc1 (configuration not stated)	0.0	9	-3.0	/	4	-1
O=S1(=O)CCOC[C@H](CC2CCCCC2)N1Cc1ccccc1F	-0.8&0.3	5	-0.3	15%	3	-2
COc1ccc(/C=C/C(=O)NCC(=O)N/N=C/c2cccnc2)cc1	0.5	-17	-4.1	1.3%	-1	-6
CCCCCC1CCC(C(=O)N2CCOCC2)CC1 (configuration not stated)	0.0	13	-1.5	0.4%	-14	-8
Cc1ccn2c(=O)c(NC(=O)c3cccs3)c(C)nc2c1	1.5	-14	-2.8	-1.9%	3	-11
Cc1cc(C)n(C(C)CNC(=O)c2ccc3c(c2)OCO3)n1 (configuration not stated)	1.2	8	3.2	0.1%	3	10
CCOc1ccc(/C=C2\SC(=S)N(NS(=O)(=O)c3ccccc3)C2=O)cc1OC	-0.4	/	-6.4	-0.8%	-12	11
CCOc1ccccc1NS(=O)(=O)c1ccc(-n2cccn2)cc1	0.0	-2	4.0	7.3%	0	32
COC(=O)c1sc(N)c(C(=O)OC)c1COC(=O)c1c(C)noc1C	1.6	-7	-10.0	11%[38.3 µM]	-5	29
O=C(NCCOc1ccc(F)cc1)C1CCN(S(=O)(=O)c2ccccc2)CC1	2.6	7	-4.2	-2.7%	2	-4
O=C1CC(NS(=O)(=O)c2cccs2)CN1c1ccccc1 (configuration not stated)	0.2	2	5.2	2.9%	1	-9
Cc1nc(N2CCOCC2)c2c(C)c(C(=O)Nc3ccc(F)cc3F)sc2n1	1.2	-2	-1.3	0.2%	-4	12
CCCCOc1ccc(C(=O)NCC(=O)NCCCn2nc(C)cc2C)cc1	4.6	0	-0.1	1.1%	1	-16
O=C(COc1ccccc1)Nc1nnc(S(=O)(=O)N2CCCCC2)s1	-0.9	11	-0.6	2.7%	8	-12
O=C(Nc1cccnc1)c1ccc(COc2cc(Cl)ccc2Cl)o1	-0.3	-2	-1.4	4.2%	12	-15
CCOc1ccc(C2C(C(=O)c3ccco3)=C(O)C(=O)N2CCCn2ccnc2)cc1OC (configuration not stated)	0.5	-1	-1.9	1.2%	1	4
COc1ccc(CC(=O)NCCN2CCOCC2)cc1	0.7	/	-5.2	2.1%	5	22
CC(C)(C)C(=O)Nc1ccc(C(=O)Nc2cc(NC(=O)c3ccc(NC(=O)C(C)(C)C)cc3)cc(C(=O)O)c2)cc1	-0.1	11	2.9	1.0%	-12	4
CSc1cccc(NC(C)C(=O)NCc2ccccc2)c1 (configuration not stated)	1.3	3	-2.0	2.5%	-10	-4
O=C(O)c1ccc(OCCCCCCOC2CCCCO2)cc1 (configuration not stated)	-0.5	6	-0.7	4.8%	-3	-1
CCN(CC)CC#CC(OC)(c1ccccc1)c1ccccc1	-0.4	2	-5.0	7.7%	-12	5
CCC1CCCCN1C(=O)COC(=O)CN(C)S(=O)(=O)c1ccc(NC(C)=O)cc1 (configuration not stated)	0.0	4	-7.1	3.6%	8	-3
O=C(Nc1cc(C(F)(F)F)ccc1N1CCCCC1)C1=COCCO1	2.4	5	-2.4	3.7%	-3	0
CCOC(=O)c1cc(C(C)=O)c(=O)n(C)c1N	-0.2	-5	-2.0	-0.6%	-5	-21
CCC(C)C(=O)OCC1(c2ccc(C)cc2OC(=O)C(C)C)CO1 (configuration not stated)	/	5	4.0	-0.8%	11	/
COc1ccc(NC(=O)CN2C(=O)CCn3nc(-c4cccn4C)cc32)cc1Cl	0.0	/	/	1.2%	/	-13
FC(F)(F)c1cc(C(F)(F)F)n2nc(-c3sccc3-n3cccc3)cc2n1	-0.5	1	-3.2	20%[38.3 µM]	-2	3
COc1ccc2c(c1)-c1nc(NC(=O)c3ccc(C)cc3)sc1CC2	0.2	/	/	4.3%	/	19
COc1cc(CNc2ncc(-c3ccc(Br)cc3)n2C)cc(OC)c1OC	2.0	0	-0.3	-1.1%	-1	-6
COC(=O)c1cccc(-n2c(CCC(=O)O)ccc2-c2cccs2)c1	-0.8	0	-2.1	-0.4%&-0.3%	1	14
O=C(O)CCn1cc(/C=C\C(=O)c2ccc(Cl)cc2)c(-c2cccc(Br)c2)n1	0.3	0	-3.1	-3.4%	-5	24
Cc1ccc(NC(=O)c2ccc(F)cc2)cc1S(=O)(=O)N1CCCCCC1	-0.2	5	5.3	16%	-13	3
Cc1cccc(C)c1NC(=O)CN(C)C(=O)c1ccc(NS(=O)(=O)c2ccc3[nH]c(=O)[nH]c3c2)cc1	-0.3	-1	-6.0	-0.3%	-9	7
Cc1c(O)ccc(-c2[nH]ncc2-c2nc3ccccc3s2)c1O	0.4	-2	1.2	0.3%	-1	26
Fc1ccc(N/N=C2/CCSc3sccc32)c(F)c1	-0.4	1	-4.4	-0.7%	1	11

# Of the compounds above, these have a CF3 group:
Compound	TRPML1 ag	CtBP-E1A blk	D2 ag	PINK1 modulator	Six1-Eya2 inh	TRPML1 blocker
O=C(Nc1cc(C(F)(F)F)ccc1N1CCCCC1)C1=COCCO1	2.4	5	-2.4	3.7%	-3	0
FC(F)(F)c1cc(C(F)(F)F)n2nc(-c3sccc3-n3cccc3)cc2n1	-0.5	1	-3.2	20%[38.3 µM]	-2	3

# 4 compounds already listed, sorted by the number in PINK1 modulator, falling.
SMILES | CtBP-E1A blk | D2 ag | PINK1 modulator | Six1-Eya2 inh | TRPML1 blocker
Cc1ccc(NC(=O)c2ccc(F)cc2)cc1S(=O)(=O)N1CCCCCC1 | 5 | 5.3 | 16% | -13 | 3
COc1ccc2c(c1)-c1nc(NC(=O)c3ccc(C)cc3)sc1CC2 | / | / | 4.3% | / | 19
COc1ccc(NC(=O)CN2C(=O)CCn3nc(-c4cccn4C)cc32)cc1Cl | / | / | 1.2% | / | -13
COc1cc(CNc2ncc(-c3ccc(Br)cc3)n2C)cc(OC)c1OC | 0 | -0.3 | -1.1% | -1 | -6

# Other structures.
Compound	TRPML1 ag	CtBP-E1A blk	D2 ag	PINK1 modulator	Six1-Eya2 inh	TRPML1 blocker
CCCCS(=O)(=O)N1CCCC(C(=O)N2CCOCC2)C1 (configuration not stated)	/	/	4.2	2.0%	-1	/
Cc1cc(C)c2[nH]c(O)c(N=NC(=S)NCC3CCCO3)c2c1 (configuration not stated)	-0.9	-9	-2.2	1.3%	-9	12
COc1cccc(NC(=O)Nc2nnc(Cc3ccc(F)cc3)s2)c1	-0.7	-12	-4.7	0.9%	-15	6
Nc1nc(NC(=O)c2ccccc2)nn1-c1ccccc1	0.1	/	-2.4	1.4%	-1	5
COc1ccc(-c2csc(Cc3nnc4n3CCCCC4)n2)cc1OC	0.0	1	0.9	2.8%	-16	-5
CCN(CC)CCNC(=O)c1cc2c(s1)-c1ccccc1SC2	0.6	/	-5.2	-1.0%	2	12
C=C(c1cccc2ccccc12)P(=O)(O)O	0.0	-2	-2.5	0.1%	12	0
O=Cc1ccccc1OCCCOc1cccc2cccnc12	-1.0	/	0.2	2.5%	2	-5
COc1ccccc1CCC(=O)OCC(=O)Nc1cc(C)nn1-c1ccccc1	0.8	5	-1.1	0.1%	5	9
COCCN(C(=O)COC(=O)c1c(C)nn(-c2ccccc2)c1C)c1c(N)n(Cc2ccccc2)c(=O)[nH]c1=O	-0.6	6	-1.1	0.3%	-3	-6
Cc1noc(NS(=O)(=O)c2ccc(NC(=O)c3nn(-c4ccccc4)ccc3=O)cc2)c1C	0.4	-5	-3.3	-0.7%	-8	-14
CCOC(=O)c1ccc(C(=O)NNC(=O)C2C3C=CC(C3)C2C(=O)O)cc1 (configuration not stated)	0.9	-3	0.1	2.0%	1	-11
CCCCn1c(N)c(N(CCC(C)C)C(=O)C2CCCN(C(=O)c3ccc(Cl)cc3)C2)c(=O)[nH]c1=O (configuration not stated)	0.7	3	5.5	-0.6%	5	-4
CC1(C)NC(=O)N(CC(=O)Nc2ccc(-c3ccccc3)cc2)C1=O	-0.9	4	0.6	-0.8%	5	-1
Cc1ccccc1NCC(=O)Nc1cc(S(=O)(=O)N2CCCCC2)ccc1C	-1.4	/	-1.1	2.9%	4	16
COc1ccc(OC)c(C2=NOC(C(=O)Nc3cccc(C(C)=O)c3)C2)c1 (configuration not stated)	0.9	-6	-1.5	0.8%[38.3 µM]	-4	4
Cc1ccc(CNC(=O)C(C(=O)NCc2ccc(C)o2)c2ncc(C(F)(F)F)cc2Cl)o1	1.8	12	1.0	7.0%	-5	4
COc1cccc(N2CCN(C(=O)c3ccc(CS(=O)Cc4ccccc4Cl)o3)CC2)c1 (configuration not stated)	1.5	0	12	-0.2%	2	-1

# A portion from the list above:
Compound	TRPML1 ag	CtBP-E1A blk	D2 ag	PINK1 modulator	Six1-Eya2 inh	TRPML1 blocker
CCCCn1c(N)c(N(CCC(C)C)C(=O)C2CCCN(C(=O)c3ccc(Cl)cc3)C2)c(=O)[nH]c1=O (configuration not stated)	0.7	3	5.5	-0.6%	5	-4
CC1(C)NC(=O)N(CC(=O)Nc2ccc(-c3ccccc3)cc2)C1=O	-0.9	4	0.6	-0.8%	5	-1
